AmpC nodet inh = blocks E. coli AmpC beta-lactamase in absence of detergent; AmpC nitrocefin hydrolysis, absorbance 480 nm, no detergent; potencies from a single point are estimates; Potency, µM (series often up to 28.7 µM), for the others: top-dose activity change, negative = inhibition; 71,000 tested, 1.8% active; active = falling curve, for most hits resting on a single point; inconclusive = weak or doubtful change; inactive = flat or rising curve; further: % of control where 0% means no effect; about half of the hits show no inhibition at the top dose; a quarter of the inactives give rising signals
Target sequence (P00811 whole entry, looked up): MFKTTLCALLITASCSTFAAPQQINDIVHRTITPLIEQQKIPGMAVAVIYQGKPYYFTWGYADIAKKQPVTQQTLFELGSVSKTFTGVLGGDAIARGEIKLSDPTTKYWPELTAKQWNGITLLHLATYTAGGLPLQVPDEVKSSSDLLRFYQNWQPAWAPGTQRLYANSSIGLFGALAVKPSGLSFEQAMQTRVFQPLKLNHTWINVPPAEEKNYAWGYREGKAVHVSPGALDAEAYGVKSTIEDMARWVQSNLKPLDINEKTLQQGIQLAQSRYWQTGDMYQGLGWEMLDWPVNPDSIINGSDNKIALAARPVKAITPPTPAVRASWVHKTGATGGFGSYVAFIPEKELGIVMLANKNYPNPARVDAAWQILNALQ
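AmpC, 20 mM phosphate pH 7.0; 15 min cpd preinc, RT; start with nitrocefin (800 uM stock); A480 kinetic read, 20 s intervals, 4 min. No-enzyme wells = negative control.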
An asterisk follows results filed as active; [ ] = dose if it differs, or a comment. Potency means the concentration at half of the fitted maximal effect. These rows are one share of the data. The share of hits here may be higher or lower than overall.

SMILES	AmpC nodet inh
Cc1oc2c(CN3CCCC3)c(O)ccc2c(=O)c1-c1ccc(Br)cc1	22%
Cc1csc2ncc(C(=O)N3CCc4ccccc43)c(=O)n12	-7%
CCOC(=O)c1cc2c(=O)n3ccccc3nc2n(Cc2ccccc2)c1=N	8%
Cn1c(=O)cc(SCC(=O)NCC2CCCO2)c2ccccc21 (centres undefined)	-6%
CCOC(=O)N1CCC(NC(=O)c2ccc3snnc3c2)CC1	4µM*[single pt active]
COC(=O)N[C@H](c1ccccc1)[C@@]1(C)C[C@@H]1[C@@H](C)C(=O)Nc1ccc2ccccc2c1	16%
CCCOc1ccccc1C1NC(=O)NC(C)=C1C(=O)OCCOC (centres undefined)	4%
CCCCOC(=O)Nc1sc2c(c1C(=O)OC)CCC2	3%
O=C(COC(=O)C1=COCCO1)Nc1ccc2c(c1)OCO2	-7%
c1ccc(C[C@@H](c2ccccc2)N2CCCCC2)cc1	5%
CCOC(=O)Nc1sc(C)nc1-c1ccccc1	2%
CC(=O)Nc1cc(NC(C)=O)c(CC(C)C)s1	11%
O=C(O)CCn1cnc2c(=S)nc[nH]c21	-1%[5.75 µM]
C=C(C)C(=O)OCC(C)O (centres undefined)	32%
COc1ccccc1NC(=O)Nc1ccc2c(c1)OCCO2	-4%

By substructure: the entries above containing a thiophene ring, fused or not
SMILES	AmpC nodet inh
CCCCOC(=O)Nc1sc2c(c1C(=O)OC)CCC2	3%
CC(=O)Nc1cc(NC(C)=O)c(CC(C)C)s1	11%

Additional entries:
SMILES	AmpC nodet inh
CCN(Cc1ccccc1)S(=O)(=O)c1ccc(S(=O)(=O)N2CCN(CCC#N)CC2)cc1	18%
O=C(OC1CSc2nc3ccccc3n2C1)c1ccco1 (centres undefined)	-3%
Cc1ccc(S(=O)ON2CCC(C(=O)O)(c3ccccc3)CC2)cc1 (centres undefined)	-8%[5.75 µM]
CS(=O)(=O)N1CCC2(CC1)CN(c1ncccn1)C2	22%
O=C(Nc1ccccc1)C1CC(=O)N(C2CCCCC2)C1 (centres undefined)	18%
O=C(NCc1ccc2c(c1)OCO2)c1nn(-c2ccccc2)c(=O)c2ccccc12	17%
O=C(CSc1nc(-c2ccc(F)cc2)cs1)N1CCOCC1	13%
O=C(Nc1ccc(N2CCN(C(=O)c3ccccc3)CC2)cc1)c1cc2ccccc2o1	62%
Cc1ccc(-n2ncc3c(NCc4ccccc4)ncnc32)cc1	-18%
O=C(CCS(=O)(=O)c1cc(Br)cc2c1N(C(=O)C1CC1)CC2)NCC1CCCO1 (centres undefined)	8%
CCCOC(=O)C1=C(C)NC2=C(C(=O)CCC2)C1c1cccs1 (centres undefined)	15%
CCNc1nc(N)nc(Oc2ccc(OCC)nn2)n1	-1%
Cc1noc(C)c1C(=O)N1CCC[C@@]2(CCN(Cc3ccc(C#N)cc3)C2)C1	-2%
OCCN(Cc1ccccc1)Cc1ccccc1Cl	-8%
O=C(c1ccc(CNS(=O)(=O)c2cccc(C(F)(F)F)c2)cc1)N1CCOCC1	42%

Taken from the entries so far (23 entries):
SMILES	AmpC nodet inh
COC(=O)N[C@H](c1ccccc1)[C@@]1(C)C[C@@H]1[C@@H](C)C(=O)Nc1ccc2ccccc2c1	16%
CCCOc1ccccc1C1NC(=O)NC(C)=C1C(=O)OCCOC (centres undefined)	4%
CCCCOC(=O)Nc1sc2c(c1C(=O)OC)CCC2	3%
O=C(COC(=O)C1=COCCO1)Nc1ccc2c(c1)OCO2	-7%
c1ccc(C[C@@H](c2ccccc2)N2CCCCC2)cc1	5%
CCOC(=O)Nc1sc(C)nc1-c1ccccc1	2%
CC(=O)Nc1cc(NC(C)=O)c(CC(C)C)s1	11%
O=C(O)CCn1cnc2c(=S)nc[nH]c21	-1%[5.75 µM]
C=C(C)C(=O)OCC(C)O (centres undefined)	32%
COc1ccccc1NC(=O)Nc1ccc2c(c1)OCCO2	-4%
CCN(Cc1ccccc1)S(=O)(=O)c1ccc(S(=O)(=O)N2CCN(CCC#N)CC2)cc1	18%
O=C(OC1CSc2nc3ccccc3n2C1)c1ccco1 (centres undefined)	-3%
Cc1ccc(S(=O)ON2CCC(C(=O)O)(c3ccccc3)CC2)cc1 (centres undefined)	-8%[5.75 µM]
CS(=O)(=O)N1CCC2(CC1)CN(c1ncccn1)C2	22%
O=C(Nc1ccccc1)C1CC(=O)N(C2CCCCC2)C1 (centres undefined)	18%
O=C(NCc1ccc2c(c1)OCO2)c1nn(-c2ccccc2)c(=O)c2ccccc12	17%
O=C(CSc1nc(-c2ccc(F)cc2)cs1)N1CCOCC1	13%
O=C(Nc1ccc(N2CCN(C(=O)c3ccccc3)CC2)cc1)c1cc2ccccc2o1	62%
Cc1ccc(-n2ncc3c(NCc4ccccc4)ncnc32)cc1	-18%
O=C(CCS(=O)(=O)c1cc(Br)cc2c1N(C(=O)C1CC1)CC2)NCC1CCCO1 (centres undefined)	8%
CCCOC(=O)C1=C(C)NC2=C(C(=O)CCC2)C1c1cccs1 (centres undefined)	15%
CCNc1nc(N)nc(Oc2ccc(OCC)nn2)n1	-1%
Cc1noc(C)c1C(=O)N1CCC[C@@]2(CCN(Cc3ccc(C#N)cc3)C2)C1	-2%

(more compounds)
SMILES	AmpC nodet inh
O=C(CN1C(=O)c2ccccc2S1(=O)=O)N1CCN(Cc2ccc3c(c2)OCO3)CC1	37%
CCn1c(SCC(=O)NC(C)(C)C)nc(O)cc1=O	3%
CCCCC(CC)CNC(=O)CN(C)S(=O)(=O)c1cccc2nsnc12 (centres undefined)	45%
COc1ccc(N2CCN(C(CNC(=O)c3cccc(Cl)c3)c3cccnc3)CC2)cc1 (centres undefined)	70%
COc1ccc(OC)c(NC(=O)[C@H]2CC=CC[C@H]2C(=O)O)c1	-2%
c1ccc2c(c1)CCCN2Cc1nnnn1C1CCCC1	20%
CCOC(OCC)P(=O)(O)CCCNCc1ccc(Cl)c(Cl)c1	21%
CCNC(=O)N1CCNC(=O)C1CC(=O)OC (centres undefined)	8%
O=c1cc(-c2ccc(O)cc2O)oc2ccccc12	-17%
CCCCn1c(CN2CCN(c3cccc(Cl)c3)CC2)nc2c1c(=O)n(C)c(=O)n2C	143%
O=c1cc(N2CCOCC2)[nH]c(=O)n1-c1ccc(Cl)cc1	10%
Cc1cc(C)n2nc(CC(=O)NC3CCCCCCC3)nc2n1	19%
COc1cccc(OC)c1C(=O)Nc1cc(Cl)ccc1N1CCOCC1	48%
Cc1c(CNC(=O)c2nn3c(c2Cl)NC(c2ccccc2)CC3C(F)(F)F)cnn1C (centres undefined)	101%
Cc1cc(Nc2ccccc2)n(-c2ccccc2)n1	4%
CCN(CC)C(=O)Cn1c(=O)n(Cc2ccccc2Cl)c2c1c(=O)n(C)c(=O)n2C	81%
COc1ccccc1C(=O)N1CCCN(C(=O)c2ccccc2OC)CC1	5%
NC(=O)c1ccccc1NC(=O)CCCN1C(=O)CCC1=O	-3%
CCOc1ccc(NC(=O)CSc2nnc(-c3ccccc3)n2N)cc1	-2%
NC(=O)c1nsnc1-c1ccccc1O	-7%
OC[C@@H]1O[C@@H](N2CCN([C@@H]3O[C@@H](CO)[C@@H](O)[C@H](O)[C@H]3O)CC2)[C@@H](O)[C@H](O)[C@H]1O	-3%[5.75 µM]
O=C(CS(=O)(=O)Cc1ccccc1)Nc1nc2c(s1)CCCC2	-12%
COC(=O)[C@@H]1C(O)[C@@H](C(=O)OC)[C@H](C)N(C)[C@@H]1C (some centres undefined)	0%[5.75 µM]
Cc1noc(C)c1CSc1nnc(-c2cccnc2)n1C1CCCCC1C (centres undefined)	48%
Cc1cc(NC(=O)C2CCN(S(=O)(=O)c3cnc[nH]3)CC2)ccc1Br	8%
COc1ccc(OC)c(S(=O)(=O)N2Cc3ccccc3CC2C(=O)O)c1 (centres undefined)	-16%
CC1=C(C(=O)OC(C)C)C(c2ccccc2Cl)CC(=O)N1 (centres undefined)	16%
CC(C)OC(=O)c1cccnc1SCc1cc(=O)n2ccccc2n1	45%
CCCCCCP(=O)(O)c1ccccc1	5%
